Screening data from PubChem.
GIRK2 act = opens human GIRK2 potassium channels. HEK293-GIRK2 thallium flux, Thallos fluorescence. P48051. calls only for hits at 25 µM. hit rate 0.05% among 63,000. AID 1259325;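 active = among the strongest 0.2% of first-round signals and kept after retests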;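 note: first round at about 10 µM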
Target sequence (P48051 whole entry, looked up): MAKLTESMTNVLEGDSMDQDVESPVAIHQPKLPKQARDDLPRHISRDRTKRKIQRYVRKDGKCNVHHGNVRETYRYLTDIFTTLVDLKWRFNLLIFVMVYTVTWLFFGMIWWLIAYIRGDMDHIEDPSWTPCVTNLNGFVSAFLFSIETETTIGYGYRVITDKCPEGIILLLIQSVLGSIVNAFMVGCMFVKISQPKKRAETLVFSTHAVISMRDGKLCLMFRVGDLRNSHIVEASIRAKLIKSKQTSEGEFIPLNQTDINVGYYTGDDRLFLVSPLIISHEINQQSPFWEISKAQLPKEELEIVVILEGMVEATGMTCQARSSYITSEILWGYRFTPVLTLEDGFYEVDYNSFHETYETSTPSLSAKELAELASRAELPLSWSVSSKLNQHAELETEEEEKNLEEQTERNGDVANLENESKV
Calls only; i = inactive. These rows are one share of the data; rates above refer to the full screens.

SMILES	GIRK2 act
O=C(Cn1nc(C(=O)N2CCOCC2)cc1-c1cccs1)Nc1ccc(F)c(Cl)c1	i
Cc1ccccc1C(=O)Nc1sc2c(c1-c1nc3ccccc3s1)CCCC2	i
CC(=O)c1ccc(NC(=O)c2ccc(S(=O)(=O)N(C)Cc3ccccc3)cc2)cc1	i
Cc1ccc(-c2csc(/C(C#N)=C\Nc3ccc(S(=O)(=O)Nc4cc(C)on4)cc3)n2)c(C)c1	i
COc1cc(CN2CCN(Cc3nc4ccccc4n3C)CC2)cc(OC)c1	i
O=C(CSc1ccncc1)NCC1CCC(c2nc3ccccc3[nH]2)CC1 (configuration not stated)	i
CCOC(=O)c1c(NCc2cccs2)c2cccc(Cl)c2[nH]c1=O	i
CCN(CC)CCN1C(=O)c2oc3ccccc3c(=O)c2C1c1ccccn1 (configuration not stated)	i
CCSc1nc(C(C)(C)C)cc(C(F)(F)F)c1C#N	i
COC(=O)N1CCC(CNC(=O)Nc2ccc(C(C)(C)C)cc2)CC1	i
CSc1nnc(-c2ccccc2NC(=O)c2ccc(Cl)c(S(=O)(=O)N3CCCC3)c2)o1	i
CN(C)CCN(C(=O)/C=C/c1cccs1)c1nc2ccc(S(C)(=O)=O)cc2s1	i
COCC(=O)Nc1cc(-c2cccs2)nn1-c1nc(C)cc(=O)[nH]1	i
COc1cc(C(=O)N2CCN(Cc3nc(C4CC4)cs3)CC2)c([N+](=O)[O-])cc1OC	i
CCOC(=O)Cn1c(=O)c2c(nc3n2CCCN3c2cccc(C)c2C)n(C)c1=O	i
CCN(Cc1cnc2ccccn12)S(=O)(=O)N(C)C	i
O=C(NC1CCCC1)C1CCN(c2ncccc2S(=O)(=O)N2CCCCC2)CC1	i
COc1nn(C)cc1C(=O)NCC(=O)NC1CCSC1=O (configuration not stated)	i
O=C(c1cc(-c2ccc(F)cc2)n[nH]1)N1CC(c2nc(-c3ccccc3)no2)C1	i
COc1cccc(-c2noc(Cn3c(=O)n(-c4ccc(Cl)cc4)c(=O)c4sccc43)n2)c1	i
Cc1cc(C)n(CCNC(=O)CCCc2ccccc2)n1	i
COc1ccc(OC)c(NC(=O)CN2CCCN(Cc3cc(C)ccc3C)S2(=O)=O)c1	i
CCC(C)n1c(C)c(C)n2c3c(=O)n(CC(C)=O)c(=O)n(C)c3nc12 (configuration not stated)	i
COc1ccc(-c2cc3ccc(OCCN4CC(C)OC(C)C4)cc3oc2=O)cc1OC (configuration not stated)	i
CC12CC(NC(=O)N1c1cccc(C(=O)Nc3ccc4c(c3)OCCO4)c1)c1cc(Cl)ccc1O2 (configuration not stated)	i
CCOCC(=O)N1CCN(Cc2c(C)noc2C)CC1	i
Cc1ccccc1Cn1c(=O)n(CCCCC(=O)NCc2cccs2)c(=O)c2ccccc21	i
CCOc1cccc(CNC(=O)C2CCCN(c3nc4c(-c5ccccc5)csc4c(=O)[nH]3)C2)c1 (configuration not stated)	i
Cn1c(=O)oc2ccc(S(=O)(=O)NCCc3ccsc3)cc21	i
CCCn1c(=O)c2c(nc3n(-c4ccc(OC)cc4)c(-c4ccccc4)cn23)n(C)c1=O	i
COc1ccc(-c2noc(C3CCN(CC(=O)Nc4cc(Cl)ccc4C)CC3)n2)cc1	i
COCCCn1c(C(=O)Nc2ccccc2Cl)cc2c(=O)n(C)c(=O)n(C)c21	i
COC(=O)c1ccc(CN2N=C(C(=O)N3CCCCCC3)S(=O)(=O)c3ccccc32)o1	i
Cc1noc(CNC(=O)C2CCN(C(=O)CCc3c(C)noc3C)CC2)n1	i
COc1ccc(-c2noc(-c3cn(C)c4cc(N5CCCCC5)c(F)cc4c3=O)n2)cc1OC	i
COCCN(Cc1ccncc1)C(=O)COc1ccccc1F	i
COc1ccc(-c2c(C(F)(F)F)oc3cc(OCC(N)=O)ccc3c2=O)cc1	i
CC(C)(C)N1CC(c2nc3ccccc3n2Cc2ccccc2)CC1=O (configuration not stated)	i
O=C(NCc1cccnc1)c1cccc2c1-c1ccccc1C2=O	i
CC(=O)c1sc(NC(=O)CCCSc2ccc(Cl)cc2)nc1C	i
O=C(NC1CCN(Cc2ccccc2)CC1)c1nnn(-c2ccc(Br)cc2)n1	i
COc1cc(C(=O)N(CCN2CCOCC2)c2nc3ccc(C)cc3s2)cc(OC)c1OC	i
COCCCNc1nc2c(c(=O)n(C)c(=O)n2C)n1CC(O)COc1ccc(Cl)cc1 (configuration not stated)	i
CCn1c(SCCCO)nc2c1c(=O)n(C)c(=O)n2C	i
CCOc1ccccc1NC(=O)NCC1(CO)CC1	i
COC(=O)Cn1c(=O)c2c(nc(-n3nc(C)cc3C)n2Cc2ccc(C)cc2)n(C)c1=O	i
O=C(CN1CCC(Cn2c(C(F)(F)F)nc3ccccc32)CC1)NCC1CCCO1 (configuration not stated)	i
CC1CCCCC12NC(=O)N(CC(=O)NC1CCCC1)C2=O (configuration not stated)	i
C=C(C)Cn1c(N2CCN(CC(=O)OCc3ccccc3)CC2)nc2c1c(=O)[nH]c(=O)n2C	i
Cn1nc(CNC(=O)c2ccc3nsnc3c2)cc1-c1ccncc1	i
Cc1cc(C(O)CCNC(=O)c2ccc(Br)o2)c(C)o1 (configuration not stated)	i
COc1ccc(CCC(=O)N2CCN(CC(O)C3CC3)CC2)cc1 (configuration not stated)	i
C[C@@H]1O[C@@H](O[C@H]2[C@@H]3C=CO[C@@H](O[C@@H]4O[C@H](CO)[C@@H](O)[C@H](O)[C@H]4O)[C@@H]3[C@@]3(CO)O[C@@H]23)[C@H](O)[C@H](OC(=O)/C=C/c2ccccc2)[C@H]1O	i
COc1cccc(C(=O)NCCCS(=O)(=O)N2CCN(c3ncccn3)CC2)c1OC	i
Cc1cccc(-c2csc3c(=O)[nH]c(N4CCN(Cc5ccccc5)CC4)nc23)c1	i
COc1ccc(S(=O)(=O)N2CCCOC2CNC(=O)C(=O)NCc2ccncc2)cc1OC (configuration not stated)	i
O=C(Nc1nc(C(=O)NCCCn2ncccc2=O)co1)c1ccccc1	i
COc1cccc(N2C(=O)C3N=NN(c4ccc(C)c(F)c4)C3C2=O)c1 (configuration not stated)	i
COc1ccc(CCNC(=O)CC2=NS(=O)(=O)c3ccccc3N2)cc1OC	i
Cc1ccc(NC(=O)c2ccc3c(c2)OCO3)cc1N1CCCC1=O	i

16 entries from above, sorted by molar mass, lowest first.
SMILES	GIRK2 act
CCOCC(=O)N1CCN(Cc2c(C)noc2C)CC1	i
CCSc1nc(C(C)(C)C)cc(C(F)(F)F)c1C#N	i
CCn1c(SCCCO)nc2c1c(=O)n(C)c(=O)n2C	i
O=C(NCc1cccnc1)c1cccc2c1-c1ccccc1C2=O	i
COc1ccc(CCC(=O)N2CCN(CC(O)C3CC3)CC2)cc1 (configuration not stated)	i
Cc1ccc(NC(=O)c2ccc3c(c2)OCO3)cc1N1CCCC1=O	i
COCC(=O)Nc1cc(-c2cccs2)nn1-c1nc(C)cc(=O)[nH]1	i
COc1cc(CN2CCN(Cc3nc4ccccc4n3C)CC2)cc(OC)c1	i
COc1ccc(-c2c(C(F)(F)F)oc3cc(OCC(N)=O)ccc3c2=O)cc1	i
COc1ccc(CCNC(=O)CC2=NS(=O)(=O)c3ccccc3N2)cc1OC	i
COc1cc(C(=O)N2CCN(Cc3nc(C4CC4)cs3)CC2)c([N+](=O)[O-])cc1OC	i
CN(C)CCN(C(=O)/C=C/c1cccs1)c1nc2ccc(S(C)(=O)=O)cc2s1	i
COc1ccc(-c2cc3ccc(OCCN4CC(C)OC(C)C4)cc3oc2=O)cc1OC (configuration not stated)	i
COc1cccc(C(=O)NCCCS(=O)(=O)N2CCN(c3ncccn3)CC2)c1OC	i
COCCCNc1nc2c(c(=O)n(C)c(=O)n2C)n1CC(O)COc1ccc(Cl)cc1 (configuration not stated)	i
CSc1nnc(-c2ccccc2NC(=O)c2ccc(Cl)c(S(=O)(=O)N3CCCC3)c2)o1	i

Additional structures follow.
SMILES	GIRK2 act
CC1=C(C(=O)Nc2ccc(C)c(C)c2)C(c2ccccc2F)NC(=S)N1 (configuration not stated)	i
Cc1c(CNC(=O)Cc2cccs2)sc2nc(-c3ccc(F)cc3)cn12	i
Cc1cc(C(=O)NCC(O)c2ccc3c(c2)CCO3)no1 (configuration not stated)	i
CCCCCc1ccc(-c2ccc(C(=O)Nc3cccc(Cl)c3)cc2)nc1	i
O=C(NCC#CCOc1ccc2c(c1)OCO2)c1ccoc1	i
Cc1c(C)n2c3c(=O)n(CCCO)c(=O)n(C)c3nc2n1-c1ccc(Oc2ccccc2)cc1	i
COCCOC(=O)c1c(C)oc2ccc(OCC(=O)C(C)(C)C)cc12	i
O=C(Cc1ccc(F)cc1)NC1CCN(C(=O)c2cc(-c3ccccc3)n[nH]2)CC1	i
O=C(NCCC1=CCCCC1)c1ccc(Oc2nccnc2N2CCOCC2)cc1	i
COc1ccccc1-c1nc(C#N)c(N2CCN(C(=O)c3cccc(Cl)c3)CC2)o1	i
COc1ccc(CNC(=O)NC2CCCC(OC(=O)Nc3ccc(F)cc3)C2)cc1OC (configuration not stated)	i
Cc1ccc(-n2nnc(C(=O)N3CCN(c4cccc(Cl)c4)CC3)n2)cc1	i
CC1=C(C(=O)Nc2ccc(C)c(C)c2)C(c2ccccc2Cl)NC(=S)N1 (configuration not stated)	i
COc1ccccc1OCC#CCNS(=O)(=O)c1cc(C)ccc1OC	i
CC1(C)CC[C@]2(C(=O)O)CC[C@]3(C)C(=CCC4[C@@]5(C)CC[C@H](OC6O[C@H](C(=O)O)[C@@H](O)[C@H](O[C@@H]7O[C@H](CO)[C@H](O)[C@H](O)[C@H]7O)[C@H]6O)C(C)(C)C5CC[C@]43C)[C@@H]2C1 (some centres not stated)	i
Cc1ccc(S(=O)(=O)N2C3CCC2COC3)cc1C	i
COc1ccc(CCn2c(C)c(C)n3c4c(=O)n(CCC(C)C)c(=O)n(C)c4nc23)cc1OC	i
O=C(NCc1cc(-c2ccncc2)n(C2CCCC2)n1)c1ccc2nsnc2c1	i
O=C(NCc1cccc2ccccc12)N1CCCC(COCc2ccccc2)C1 (configuration not stated)	i
Cc1nnc(-c2ccc(C)c(-c3ccc(C(=O)NCc4ccc(Cl)cc4)cc3)c2)o1	i

A different layout for two compounds above:
| SMILES | GIRK2 act |
| --- | --- |
| COCCCNc1nc2c(c(=O)n(C)c(=O)n2C)n1CC(O)COc1ccc(Cl)cc1 (configuration not stated) | i |
| CCn1c(SCCCO)nc2c1c(=O)n(C)c(=O)n2C | i |

Following part
SMILES	GIRK2 act
Cc1ccc(C(=O)Nc2nnc(-c3cccs3)o2)cc1C	i
COc1ccc(-c2c(C(F)(F)F)oc3c4c(ccc3c2=O)OCN(C(C)C)C4)cc1	i
COc1ccc(C)cc1NC(=O)CSc1ccc(-c2nc(-c3ccccc3)no2)cn1	i
O=C(NCCOc1ccccc1)c1ccc(C(F)(F)F)cc1	i
COc1ccccc1OCC#CCNC(=O)COc1ccc(C(C)C)cc1	i
Cc1ccc(-c2nc(C3CC(=O)N(Cc4cccs4)C3)no2)cc1 (configuration not stated)	i
Cc1ncc2c(SCC(=O)Nc3ccc(C)c(Cl)c3)ncnc2n1	i
CCc1ccc(N2CCn3c2nc2c3c(=O)n(Cc3ccccc3)c(=O)n2C)cc1	i
COc1ccc(-c2c(C)oc3cc(OC(=O)c4cccc([N+](=O)[O-])c4)ccc3c2=O)cc1OC	i
CS(=O)(=O)c1ccc2nc(N3CCN(C(=O)c4cc5ccccc5oc4=O)CC3)sc2c1	i
CCOC(=O)c1cccc(NC(=O)Cn2ccn3nc(-c4ccccc4)cc3c2=O)c1	i
COc1cc(-c2noc(CCn3nc(-c4ccc(F)cc4)ccc3=O)n2)cc(OC)c1OC	i
CN1CCN(c2cc(NC(=O)/C=C/c3ccccc3Cl)ncn2)CC1	i
Cc1cccc(C(=O)N2CCC3(CC2)CC(=O)c2ccccc2O3)c1	i
c1ccc(CN2CC(c3nc(-c4ncccn4)no3)C2)nc1	i
O=C(Nc1ccc2c(c1)OCO2)N1CCC(Oc2ccc(C(F)(F)F)cn2)CC1	i
CC(=O)N1CCc2c(sc(NC(=O)CCCSc3ccccc3)c2C(N)=O)C1	i
COc1ccc(CCNC(=O)c2[nH]c3ccccc3c2NC(=O)c2ccc(Cl)cc2)cc1OC	i
CCCN1CCCc2cc(CCNC(=O)C(=O)Nc3ccccc3)ccc21	i
CCOCC(=O)Nc1cc(C)nn1-c1nc(-c2ccc(F)cc2)cs1	i
O=C(c1cccs1)N1CCC(Cn2c(C(F)(F)F)nc3ccccc32)CC1	i
N#Cc1c(-c2ccc(Oc3ccccc3)cc2)c[nH]c1N	i
COc1ccccc1-c1nc(CSc2n[nH]c(=O)c3cc(-c4cccs4)nn23)c(C)o1	i
O=C(NCc1ccc(Cl)cc1)C1CCN(c2nc3ccsc3c(=O)n2-c2ccccc2)CC1	i
O=C(CSc1nccnc1N1CCN(c2ccccc2)CC1)N1CCN(c2ccc(F)cc2)CC1	i
CNC(=O)/C(C#N)=C1\SC(NC(=O)Cc2ccc(Br)cc2)C(=O)N1c1ccccc1 (configuration not stated)	i
O=C(c1ccc(Cl)s1)N(CCCn1ccnc1)c1nc2c(F)cc(F)cc2s1	i
COc1cc(OC)cc(C(=O)Nc2ccc3c(c2)N(C(C)=O)CCC3)c1	i
C/C=C/c1ccc(OCCn2cnc3ccccc32)c(OC)c1	i
O=C(Nc1sc2c(c1-c1nc3ccccc3s1)CCCC2)c1ccc(Cc2ccccc2)cc1	i
Clc1ccccc1-c1csc2ncnc(Cl)c12	i
COC(=O)Cn1c(=O)c2c(nc3n(-c4cccc(OC)c4)c(C)cn23)n(C)c1=O	i
O=C(Nc1ccc(Cl)c(Cl)c1)c1cccc(-n2cnnn2)c1	i
O=c1[nH]c2nc(NCCc3c[nH]c4ccccc34)ncc2c(=O)n1C1CCCC1	i
Cc1cc(C)n(CC(=O)N2CCN(c3ccccc3F)CC2)c(=O)c1C#N	i
COc1ccc(OC)c(-c2cc(C(=O)NCC3CCN(S(C)(=O)=O)CC3)n(C)n2)c1	i
CCCCC[C@H](O)/C=C/[C@H]1C2CC(CO2)[C@@H]1C/C=C/CCCC(=O)O (some centres not stated)	i
COC(=O)c1ccc(C(=O)N2CCC(c3ccc(OC)cc3)C2)cc1 (configuration not stated)	i
